Lassa entry inh: inhibitors of Lassa virus binding or cell entry; Lassa virus pseudotype entry inhibition, cell reporter; control for the full effect not named in the record; Potency, µM (doses to about 37.9 µM), inactives show top-dose activity change, negative = inhibition, actives largely listed as inhibitors; actives 1.2% (n = 300,000); active means well fitted inhibition curve with a large enough effect; inconclusive means small, poorly fitted or top-dose-only effect, or effect the other way; inactive means flat fitted curve, though single readings scatter; tested in HEK293 cells; note: % is set by controls: 0 for no effect and ±100 for the full control effect; nearly all actives have a fitted effect of over 50% in size; luciferase read-out
SARS PLpro yeast: SARS-CoV PLP inhibition in yeast. S. cerevisiae expressing SARS-CoV PLpro, growth rescue; control for the full effect not named in the record. actives 0.19% (n = 330,000). Potency, µM (titrated, usually from 32.9 µM), for inactives: at the highest dose activity, positive = growth rescue. AID 485353; note: 0% is about no effect; nearly all actives have a fitted effect of over 55% in size; growth read by luminescence after 48 h
StopGo reporter: FMDV 2A StopGo reporter, luciferase signal; human cells with a luciferase reporter of 2A StopGo recoding; control for the full effect not named in the record; Potency, µM (top dose mostly 57.9 µM), without a hit: at the top dose signal change, negative = less light; actives 1.2% (n = 410,000); active = well fitted falling curve with a large enough effect; inconclusive = small, poorly fitted or top-dose-only effect; inactive = no such curve, though single readings can be large or run the other way; tested in HEK293T cells; note: % is set by controls: 0 for no effect and ±100 for the full control effect; nearly all actives have a fitted effect of over 45% in size; luciferase light after 4 h
MARV entry inh: blocks Marburg virus binding to or entry into cells | Marburg virus pseudotyped entry inhibition, cell reporter; control for the full effect not named in the record; about a third of the inactives were read at about 46 µM | Potency, µM (series often up to 37.8 µM), without a hit: at the top dose activity change, negative = inhibition, most hits filed as inhibitors | actives 1.8% (n = 300,000) | AID 540276; active = well fitted inhibition curve with a large enough effect; inconclusive = small, poorly fitted or top-dose-only effect, or effect the other way; inactive = flat fitted curve, though single readings scatter; tested in HEK293 cells; about a fifth of its hits are not listed in these tables; note: % is set by controls: 0 for no effect and ±100 for the full control effect; luciferase read-out
Cruzain noTriton: inhibitors of Trypanosoma cruzi cruzain without detergent. P25779. actives 2.3% (n = 200,000). purified cruzain, Z-FR-AMC fluorescence, no detergent. Potency, µM, without a hit: max response, negative = inhibition, hits mostly inhibitors. AID 1476; active = well fitted curve in the direction sought with a large enough effect; inconclusive = small, poorly fitted or top-dose-only effect, or another doubt; inactive = no such curve, though single readings can be large; an effect the other way counts as inactive or inconclusive;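 note: plate controls were enzyme without inhibitor for no effect and buffer without enzyme for full effect; nearly all actives have a fitted effect of over 40% in size; top concentration of the series not given in the record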
Target sequence (P25779 123-467 limits assumed): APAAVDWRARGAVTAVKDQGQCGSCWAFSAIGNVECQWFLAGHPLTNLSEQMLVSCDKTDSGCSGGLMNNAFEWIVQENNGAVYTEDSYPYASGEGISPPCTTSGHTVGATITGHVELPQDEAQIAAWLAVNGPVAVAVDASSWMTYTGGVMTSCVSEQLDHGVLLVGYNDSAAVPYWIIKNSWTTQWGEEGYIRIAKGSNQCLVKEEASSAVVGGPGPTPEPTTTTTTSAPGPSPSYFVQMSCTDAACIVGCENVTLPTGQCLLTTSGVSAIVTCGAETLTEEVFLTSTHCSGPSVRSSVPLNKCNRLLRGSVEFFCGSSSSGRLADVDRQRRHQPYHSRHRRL
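Purified cruzain at 1.5 nM, pre-incubated 15 min with compound at room temperature in 100 mM sodium acetate pH 5.5, 5 mM DTT, 0.00005% Triton X-100. Reaction started with 2 uM Z-FR-AMC; AMC fluorescence increase over 60 s gives rate.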
RE007 growth inh: less growth of the S. pombe RE007 Vpr strain. AID 651644. actives 0.21% (n = 360,000). S. pombe RE007 Vpr strain, BacTiter-Glo ATP luminescence, 24 h; control for the full effect not named in the record. Potency, µM (doses to about 92.2 µM), for inactives: at the highest dose activity change, negative = less growth; active = well fitted falling curve with a large enough effect; inconclusive = small, poorly fitted or top-dose-only effect; inactive = no such curve, though single readings can be large or run the other way;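 note: % is set by controls: 0 for no effect and ±100 for the full control effect; nearly all actives have a fitted effect of over 50% in size; the assay follows cell death caused by Vpr and the record does not say whether a fall means rescue or toxicity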
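Fission yeast strain RE007, carrying one chromosomally integrated HIV-1 vpr copy, was seeded at OD 0.01 in PMG+AL medium with 23 nL pinned compound. After 24 h at 30 °C and 99% humidity, viability was read by BacTiter-Glo luminescence.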
NS1 inh: influenza NS1 inhibition. S. cerevisiae slowed by influenza A NS1, growth recovery by OD600. Potency, µM (doses to about 46.1 µM), for inactives: at the highest dose activity, positive = more growth. actives 0.4% (n = 270,000); note: actives are rising curves; nearly all actives have a fitted effect of over 50% in size
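OD600 was taken as the measure of yeast growth restored by compound in an NS1-expressing S. cerevisiae strain. Cells had been washed out of glucose medium and diluted 1:100 into galactose -URA medium, pH 6.0.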
Cruzain inh Det: inhibitors of Trypanosoma cruzi cruzain with detergent. P25779. purified cruzain, Z-FR-AMC fluorescence, 0.01% Triton. Potency, µM, inactives show max response, negative = inhibition, actives largely listed as inhibitors. actives 0.43% (n = 200,000). AID 1478; active = well fitted curve in the direction sought with a large enough effect; inconclusive = small, poorly fitted or top-dose-only effect, or another doubt; inactive = no such curve, though single readings can be large; an effect the other way counts as inactive or inconclusive;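 note: plate controls were neutral wells for no effect and buffer without enzyme for full effect; nearly all actives have a fitted effect of over 40% in size; top concentration of the series not given in the record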
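Detergent-containing arm of a paired screen for aggregation-based inhibition: 0.01% Triton X-100 present. Cruzain at 1.5 nM cleaved 2 uM Z-FR-AMC at pH 5.5 with 5 mM DTT; AMC fluorescence gain over 60 s measured activity.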
Active calls of the source: *; ? = inconclusive; . = no result given; & = joins results of further samples; [ ] = dose if it differs, or a comment. Unless noted, calls come from the whole dose curve; as a rule, active means well fitted rising curve with a large enough effect; inconclusive means small, poorly fitted or top-dose-only effect; inactive means no such curve, though single readings can be large or run the other way. Potency is the fitted concentration of half-maximal effect.

Values run as follows: Lassa entry inh	SARS PLpro yeast	StopGo reporter	MARV entry inh	Cruzain noTriton	RE007 growth inh	NS1 inh	Cruzain inh Det
1: COc1ccc(CCNC(=O)COC(=O)Cc2ccccc2[N+](=O)[O-])cc1
→ 1%	-3%	-11%	3%	.	1%	.	.
2: CCOC(=O)CSc1ncc(-c2ccccc2)cn1
→ -26%	8%	22%	22%	2%	-12%	-9%	0.7%
3: CC1C2CC(CC1(C)C)N(C(=O)Nc1ccc3nccnc3c1)C2 (stereo not drawn)
→ 11%	12%	-2%	29%	-1%	-6%	-14%	-1.3%
4: N#CC1=C(N)SC(N)=C(C#N)C1Cc1ccccc1
→ .	5%	-24%	-6%	-8%	-13%	7%	-6.1%
5: COc1nc(NCc2ccc(Cl)cc2)nc(OC)n1
→ 6%	0%	9%	27%	-1%	48%	-10%	4.4%
6: O=c1cc(CSc2ccccc2)nc(-c2ccncc2)[nH]1
→ 5%[46.1 µM]	2%	4%	1%[46.1 µM]	.	12%	.	.
7: Cc1ccc(C(=O)COC(=O)c2ccncc2)cc1[N+](=O)[O-]
→ 12%	-3%	0%	9%	-25%	16%	16%	-4.2%
8: Cc1nc(-c2cccnc2)sc1CCNS(=O)(=O)c1ccc(F)cc1
→ 5%[46.1 µM]	.	13%	.	-3%	.	.	-5.7%
9: CC(=O)c1c(C)n(-c2ccc(Br)cc2)c2ccc(O)cc12
→ .	-2%	-22%	.	.	-12%	0%	.
10: O=C1CS/C(=N/N=C/c2ccccc2)N1c1ccc(O)cc1
→ 4%	5%	-20%	9%	.	5%	24%	.
11: O=C(NCc1ccco1)NC1CCCCC1
→ -1%	22%	1%	?	-4%	1%	-3%	-1.0%
12: CC1CCN(c2nc(-c3ccc(C(C)(C)C)cc3)nc3ccccc23)CC1
→ 16%[46.1 µM]	.	-26%	.	0%	.	.	-1.6%
13: COc1ccc(C(=O)N2CCC(C(=O)O)CC2)cc1
→ 13%	16%	-5%	18%	2%	-9%	-12%	11%
14: C=CCN(CC=C)S(=O)(=O)c1ccc(NC(=S)NC(=O)c2ccco2)cc1
→ ?	-4%	?	?	4%	-4%	10%	-3.4%
15: CCN(CC)C(=O)COc1ccc(-c2nnc(N3CCCCC3)c3ccccc23)cc1
→ -2%	5%	?	-3%&-3%	-4%	-12%	-30%	-0.8%
16: CSCCC(NC(=O)c1ccc(Cl)cc1)C(=O)NC(C)(C)C (stereo not drawn)
→ -14%	0%	-4%	?	7%	5%	-2%	-0.2%
17: CN(C(=O)c1cc2ccccc2cc1O)C1CCCCC1
→ .	-4%	37%[activator]	.	.	7%	-22%	.
18: CCOC(=O)CNC(=O)CCCCCC(=O)NCC(=O)OCC
→ 14%	-1%	-5%	10%&10%	-14%	-8%	0%	1.6%
19: CC(C)C(OC(=O)c1cccs1)C(=O)NCc1ccco1 (stereo not drawn)
→ -3%	1%	-3%	-14%	-9%	9%	9%	-6.4%
20: CCCSc1nc2c(c(=O)n1CC)SC(C)C2 (stereo not drawn)
→ .	-10%	-6%	.	-8%	-4%	-11%	2.4%

Looked up above:
`CSCCC(NC(=O)c1ccc(Cl)cc1)C(=O)NC(C)(C)C` (stereo not drawn) in SARS PLpro yeast = 0%
`CC1C2CC(CC1(C)C)N(C(=O)Nc1ccc3nccnc3c1)C2` (stereo not drawn) in MARV entry inh = 29%
`Cc1nc(-c2cccnc2)sc1CCNS(=O)(=O)c1ccc(F)cc1` in Cruzain noTriton = -3%
`N#CC1=C(N)SC(N)=C(C#N)C1Cc1ccccc1` in RE007 growth inh = -13%
`COc1ccc(CCNC(=O)COC(=O)Cc2ccccc2[N+](=O)[O-])cc1` in RE007 growth inh = 1%

Additional structures:
Values run as follows: Lassa entry inh	SARS PLpro yeast	StopGo reporter	MARV entry inh	Cruzain noTriton	RE007 growth inh	NS1 inh	Cruzain inh Det
21: O=C(Cc1cn(Cc2cccc(Cl)c2)c2ccccc12)N1CCCCCC1
→ ?	-6%	?	?	-13%	32%	-7%	-7.3%
22: O=C(O/N=C\c1ccc(N2CCCCC2)c([N+](=O)[O-])c1)c1ccc(Cl)cc1Cl
→ 2%	1%	-22%	-18%	?	-23%	-14%	0.0%
23: CCCCn1nc(C(=O)NNC(=O)c2ccncc2)c2ccccc2c1=O
→ -17%	?	-3%	10%	.	-2%	9%	.
24: CCOc1ccc(CNC(=O)c2cc3cc(S(=O)(=O)N4CCCCC4)ccc3n2C)cc1
→ ?	.	?	.	-15%	.	.	-2.1%
25: O=C(CN1CCN(c2ccccc2)CC1)Nc1nnc(-c2ccccc2)s1
→ -1%	4%	-20%	10%	-4%	2%	-6%	-3.9%
26: CC(C)CCn1c(Sc2nc3ccccc3o2)nc2c1c(=O)[nH]c(=O)n2C
→ -19%	-3%	0%	?	-11%	-18%	-9%	-8.4%
27: NC(=O)C1c2ccccc2Oc2ccccc21
→ 20%[46.1 µM]	0%	-6%	-11%[46.1 µM]	.	-2%	6%	.
28: CC(C)(C)C1CCc2c(sc(NC(=O)C3c4ccccc4Oc4ccccc43)c2C(N)=O)C1 (stereo not drawn)
→ -7%[46.1 µM]	.	-8%	?	10µM*	.	.	-8.5%
29: CC(C)(C)c1ccc(OCC(O)CNC(=O)c2ccccc2C(=O)O)cc1 (stereo not drawn)
→ 6%	.	11%	19%	.	?	.	.
30: CC1CC(C)CN(S(=O)(=O)c2ccc3c(c2)oc(=O)n3CC(=O)N(C)Cc2ccccc2)C1 (stereo not drawn)
→ .	2%	-27%	.	.	2%	17%	.
31: CCOc1ccc(CCNC(=O)COC(=O)c2c(OC)cccc2OC)cc1OCC
→ -23%[46.1 µM]	3%	-21%	-15%	.	2%	.	.
32: O=C(Nc1ccc(Cl)c([N+](=O)[O-])c1)C(Sc1ccccc1)c1ccccc1 (stereo not drawn)
→ ?	-83%	?	?	-12%	4%	-32%	-3.9%
33: COc1ccc(S(=O)(=O)Nc2c(C)cccc2C)cc1-n1cnnn1
→ 6%[46.1 µM]	-1%	5%	-2%[46.1 µM]	.	-4%	4%	.
34: CN(C)CCCNC(=O)Cc1ccc(Br)cc1
→ 20%	-3%	-11%	1%	2%	-9%	3%	2.1%
35: COC(=O)C(C)(C)ONC(=O)Nc1ccc([N+](=O)[O-])cc1
→ -3%[46.1 µM]	0%	2%	-5%[46.1 µM]	.	8%	-3%	.
36: CN(C)S(=O)(=O)c1ccc(C(=O)N2CCN(C(=O)C3CCCO3)CC2)cc1 (stereo not drawn)
→ 12%	0%	-13%	?	.	5%	.	.
37: CCOC(=O)CSc1nc2cc3c(cc2cc1CC)OCCO3
→ -3%	-67%	-23%	?	-9%	-24%	-13%	-10%
38: COc1ccc(N2C(=O)CSC23C(=O)N(CC(=O)NCc2ccccc2)c2ccccc23)cc1 (stereo not drawn)
→ 6%[46.1 µM]	.	-9%	.	-4%	.	.	-2.0%
39: OCCC1CN(Cc2cc3c(cc2Cl)OCO3)CCN1Cc1ccccc1 (stereo not drawn)
→ -1%[46.1 µM]	0%	-18%	-3%[46.1 µM]	.	1%	4%	.
40: CC(C)c1ccc(/C=N/NC(=O)c2ccc(-n3cnnn3)cc2)cc1
→ ?	-1%	-27%	11%[46.1 µM]	.	9%	.	.
41: CCNc1nc(N2CCCCC2)nc(-n2nnc(C(=O)OCC)c2C)n1
→ -6%	-3%	-15%	-11%	-11%	25%	-46%	0.2%
42: Cc1ccc(C(=O)/C=C/C(=O)O)cc1
→ .	-34%	?	.	-1%	-18%	-20%	-10%
43: Cc1nn(CC(=O)N2CCCC2)c(=O)c2nn(-c3ccccc3)c(C)c12
→ .	4%	-6%	.	.	-3%	-2%	.
44: N=c1c2c(-c3ccccc3)c(-c3ccccc3)n(Cc3ccccc3)c2ncn1CCO
→ ?	0%	?	?	-11%	38%	-4%	1.8%
45: COc1c2ccoc2c(OC[C@@H](O)C(C)(C)O)c2oc(=O)ccc12
→ 6%	5%	-1%	?	0%	-3%	-15%	-1.8%
46: CC(=O)Nc1nc2nc(-c3ccccc3)cc(-c3ccccc3)n2n1
→ -4%	3%	-5%	-8%	-26%	3%	18%	-17%
47: CCOCCOC(=O)c1ccc(NC(=O)c2cc3ccccc3o2)cc1
→ -21%[46.1 µM]	.	-3%	?	.	-13%	.	.
48: COc1cc(/C=C(\C#N)c2nc3ccccc3[nH]2)ccc1OCc1cccc(C(F)(F)F)c1
→ ?	.	-27%	?	1%	.	.	-3.6%
49: COc1ccc(C(=O)N2CCN=C2SC)cc1
→ 26%	0%	28%	-5%	.	17%	.	.
50: COc1ccc(Nc2c3c(nc4ccc(NC(=O)c5ccc(F)cc5)cc24)CCCC3)cc1OC
→ -26%[46.1 µM]	.	-16%	?	-15%	.	.	-2.7%
51: Cc1cccc(NC2SC(=O)N(c3ccccc3)C2=O)c1 (stereo not drawn)
→ ?	-1%	45%[activator]	10%	-10%	4%	7%	7.2%
52: COc1cc(C(=O)NNC(=O)c2ccoc2C)cc(OC)c1OC
→ .	0%	-12%	.	.	9%	5%	.
53: c1cc(CNCC2CCCO2)ccn1 (stereo not drawn)
→ -2%[46.1 µM]	5%	-7%	9%[46.1 µM]	.	-11%	.	.
54: CCC1CCCCN1CCCNC(=O)CC1Oc2ccc(C)cc2NC1=O (stereo not drawn)
→ .	5%	-1%	.	-1%	-8%	-5%	2.1%
55: CCCN1CCN(CCCNC(=O)c2cc3c(=O)[nH]c4ccccc4c3s2)CC1
→ -17%[46.1 µM]	0%	-11%&-18%	?	2%	-11%	.	-14%
56: COC(=O)Cn1c(CCC(=O)O)ccc1-c1ccccc1
→ .	-5%	0%	.	-3%	2%	5%	-7.7%

In the list so far, two contain bromine.
Values run as follows: Lassa entry inh	SARS PLpro yeast	StopGo reporter	MARV entry inh	Cruzain noTriton	RE007 growth inh	NS1 inh	Cruzain inh Det
9: CC(=O)c1c(C)n(-c2ccc(Br)cc2)c2ccc(O)cc12
→ .	-2%	-22%	.	.	-12%	0%	.
34: CN(C)CCCNC(=O)Cc1ccc(Br)cc1
→ 20%	-3%	-11%	1%	2%	-9%	3%	2.1%

Screens (PubChem)
